Vaccinia Venus = inhibitors of vaccinia virus (Venus reporter) | Vaccinia virus Venus reporter expression, fluorescence | Potency, µM (top dose mostly 36.5 µM), without a hit: at the highest dose activity change, negative = inhibition, usual class: inhibitors | 330,000 tested, 0.46% active; active means well fitted inhibition curve with a large enough effect; inconclusive means small, poorly fitted or top-dose-only effect; inactive means no such curve, though single readings can be large or run the other way; tested in A549 cells; also: nearly all actives have a fitted effect of over 30% in size; inactives centre near -10
VACV mCherry inh = vaccinia inhibition (mCherry reporter). 310,000 tested, 0.63% active. Vaccinia virus mCherry reporter infection, fluorescence; about a quarter of the inactives have no number. AID 720579. Potency, µM (doses to about 36.5 µM), inactives show at the top dose activity change, negative = inhibition, actives largely listed as inhibitors; active = well fitted inhibition curve with a large enough effect; inconclusive = small, poorly fitted or top-dose-only effect; inactive = no such curve, though single readings can be large or run the other way; tested in A549 cells; also: nearly all actives have a fitted effect of over 35% in size; inactives centre near -10
* = called active by the depositor; i = inactive; ? = inconclusive; . = not tested or not shown; & = joins results of further samples; [ ] = another dose, or the depositor's remark. % is scaled to controls: 0 for no effect and ±100 for the full control effect; potency is read from the fitted curve at half-maximal effect.

Sample of the layout:
SMILES | Vaccinia Venus | VACV mCherry inh
COC(=O)c1ccccc1NC(=O)Cn1c(=O)n(CCCC(=O)NCc2ccccc2OC)c(=O)c2ccccc21 | -13% | ?
COc1ccc(-n2c(C)c(C)c3c(NCCO)ncnc32)cc1 | -17% | -29%
O=C(COC(=O)c1ccc[nH]c1=O)Nc1ccc2c(c1)OC(F)(F)O2 | -1% | -24%

The list itself, previewed entries included:
SMILES | Vaccinia Venus | VACV mCherry inh
COC(=O)c1ccccc1NC(=O)Cn1c(=O)n(CCCC(=O)NCc2ccccc2OC)c(=O)c2ccccc21 | -13% | ?
COc1ccc(-n2c(C)c(C)c3c(NCCO)ncnc32)cc1 | -17% | -29%
O=C(COC(=O)c1ccc[nH]c1=O)Nc1ccc2c(c1)OC(F)(F)O2 | -1% | -24%
Cc1ccc(N2CC3=C(C2=O)C(c2ccccc2)NC(=O)N3C)cc1 (stereo not given) | 26% | .
Cn1c(CNC(=O)c2ccco2)nnc1SCC(=O)Nc1ccccc1Cl | -1% | -7%
CC(C)CCNc1nnnc2c1sc1nc(N3CCOCC3)c3c(c12)CC(C)(C)SC3 | -8% | i
CC(=O)N1CCN(c2ccc(NC(=O)c3cccc(F)c3)cc2)CC1 | -10% | i
COc1cc(-c2nc3ccccc3c(=O)n2N)cc(OC)c1OC | -7% | i
COc1ccc(CCNc2cc(C)nc3c(-c4ccc(Cl)cc4)c(C)nn23)cc1OC | ? | -26%
Cc1cccc(OCCOCCSc2ncccn2)c1 | -2% | .
N#CCCN1CCN(C(CNS(=O)(=O)c2ccc(Cl)cc2)c2ccccc2)CC1 (stereo not given) | -21% | .
CC(C)c1ccc(C(C(=O)NC2CCCC2)N(C(=O)c2csnn2)C2CC2)cc1 (stereo not given) | -14% | -5%
CC(C)=CC(=O)Nc1ccc2c(c1)OCO2 | -8% | -17%
COc1ccccc1N1CCN(/N=C/c2cc(OC)c(OC)c(OC)c2)CC1 | -24% | ?
Cc1ccc(CN(C)C(=O)CCNC(=O)c2ccc(Cl)cc2)o1 | -14% | -16%
CSc1nc2nc(C)c(C/C=C/c3ccccc3)c(=O)n2[nH]1 | -4% | -8%
O=C(Nc1ccc(Cl)cc1Cl)C1CCCO1 (stereo not given) | -14% | -3%
CCCCCCCC/C=C\CCCCCCCC(=O)NCCO | -18%&-10% | -3%&-14%
COc1cccc(C(=O)/C=C/Nc2ccc(NC(C)=O)cc2)c1 | -25% | i
CCc1ccc(CNC(=O)CCc2c(C)nn(-c3ccc(N4CCCCC4)nn3)c2C)cc1 | -9% | -10%
O=[N+]([O-])c1cccc2c(Br)[nH]nc12 | -15%[87.9 µM] | -9%[87.9 µM]
COc1ccccc1NC(=O)Nc1nc(CC(=O)N2CCN(c3ccccc3OC)CC2)cs1 | ? | ?
O=C(CNC(=O)c1ccncc1)N/N=C/c1cc(Br)ccc1O | 0% | -7%
O=C(Nc1cccc(F)c1)C1CCN(S(=O)(=O)c2cccc3nsnc23)CC1 | -9% | 2%
C=CCNC(=O)CN1CCC(O)(c2ccccc2)CC1 | -16% | -18%

Quoted at random: 3 entries already listed
SMILES | Vaccinia Venus | VACV mCherry inh
O=C(COC(=O)c1ccc[nH]c1=O)Nc1ccc2c(c1)OC(F)(F)O2 | -1% | -24%
CCc1ccc(CNC(=O)CCc2c(C)nn(-c3ccc(N4CCCCC4)nn3)c2C)cc1 | -9% | -10%
COC(=O)c1ccccc1NC(=O)Cn1c(=O)n(CCCC(=O)NCc2ccccc2OC)c(=O)c2ccccc21 | -13% | ?

Next part
SMILES | Vaccinia Venus | VACV mCherry inh
O=C(CN1CCCC1)Nc1cc(C(F)(F)F)cc(C(F)(F)F)c1 | 3% | ?
CN(C)CCCNC(NC(=O)/C=C/c1ccccc1)C(Cl)(Cl)Cl (stereo not given) | -3% | i
Cc1cc(C)c(NC(=O)Cc2ccc(-n3c(C)nc4cccnc43)cc2)c(C)c1 | -17% | -12%
CCCCCCN1CC(O)=C(c2ccccc2)C1=N | -13% | .
Cc1ccccc1C(=O)Nc1nnc(-c2ccncc2)o1 | -16% | -4%
COC(=O)COc1ccc(S(=O)(=O)N2CCN(c3ccc(OC)cc3)CC2)cc1 | -6% | -3%
COc1cccc(N/C=C(\C#N)c2ccc(OCCCF)cc2)c1 | -11% | -22%
CCCCN1C=C(C(=O)c2ccccc2)C(=O)CC1 | -21% | -20%
O=S(=O)(Nc1ccc(F)c(Cl)c1)c1ccc(Br)s1 | -7%[7.34 µM] | -9%[7.34 µM]
Cc1ccccc1OCCC(=O)OCC(=O)Nc1c(F)cccc1F | -3% | i
CCOC(=O)c1[nH]ncc1CN1CCCC(C(=O)c2ccc(SC)cc2)C1 (stereo not given) | -14% | -23%
CC1=C(C)N(C)[C@H](c2ccccc2Br)[C@H](O)C1=O | -3% | -9%
Cn1cc(S(=O)(=O)c2cccc(Cl)c2)c(=O)c2cc(F)c(N3CCCCC3)cc21 | -14% | -3%
CCc1ccc(OCC(=O)Nc2cc3oc4ccccc4c3cc2OC)c(Br)c1 | 1% | -16%
Cc1cccn2c(NC(=O)c3cccs3)c(-c3ccccc3)nc12 | 4% | -7%
CCCCc1ccc(NC(=O)COC(=O)c2ccc3ncsc3c2)cc1 | -29% | -6%
O=C(O)CSCC(=O)Nc1ccccc1SCCS(=O)(=O)c1ccc(Cl)cc1 | ? | ?
O=C(Cn1c(-c2cscn2)nc2ccccc21)Nc1cc(F)ccc1F | -19% | -11%
CC(C)CC(=O)NCC(c1ccc2c(c1)OCO2)N1CCN(c2ccccc2F)CC1 (stereo not given) | 0% | -11%
O=C(NCc1ccco1)c1cc(Cl)nc(Cl)c1 | -17% | -12%
O=C(CSc1nncc2ccccc12)Nc1ccccc1 | -18% | ?
COC(=O)c1cccc(NC(=O)CCc2ccccc2)c1 | -12% | -15%
COc1ccc([N+](=O)[O-])cc1NC(=O)CSc1nccc(C)n1 | -4% | -12%
Oc1ccc2c(c1)c1ccccc1c1ncccc21 | -24% | -11%
COc1ccc(OC)c(S(=O)(=O)NC2CCCCNC2=O)c1 (stereo not given) | -16% | -18%

Exported with each value named: 2 of the compounds above.
CCCCCCN1CC(O)=C(c2ccccc2)C1=N
  Vaccinia Venus = -13%
  VACV mCherry inh = .
Cc1ccccc1C(=O)Nc1nnc(-c2ccncc2)o1
  Vaccinia Venus = -16%
  VACV mCherry inh = -4%

The list goes on.
SMILES | Vaccinia Venus | VACV mCherry inh
COC(=O)C(N)Cc1ccc(O)c(O)c1 (stereo not given) | 1% | 5%
CCCOc1ccc(CN(C(=O)c2cc(=O)c3ccc(C)cc3o2)C2CCS(=O)(=O)C2)cc1 (stereo not given) | -7% | -1%
CCOc1cc(N2CCOCC2)c(OCC)cc1NC(=O)COC(=O)[C@H](Cc1c[nH]c2ccccc12)NC(C)=O | 6% | .
Cc1cccc2c(=O)cc(CSc3ccccc3NC(=O)c3cccc(Br)c3)[nH]c12 | -3% | -7%
Cc1ccc(C)c(S(=O)(=O)Nc2ccccc2C(=O)Nc2ccccc2N2CCOCC2)c1 | -16% | -25%
CCNC(=S)N=Nc1c(O)[nH]c2ccc(C(C)C)cc12 | ? | ?
COc1ccccc1NC(=S)NNC(=O)c1cc(C)nn1C | -7% | -2%
CCc1ccc(NC(=S)N(Cc2ccc(Cl)cc2)Cc2ccc(C(=O)O)cc2)cc1 | 0% | 6%
CCC(=O)NCc1csc(-c2cccs2)n1 | -15% | -13%
O=S(=O)(c1ccc(F)cc1)N1CCN(c2nc(-c3ccc(F)cc3)cs2)CC1 | -4% | -21%
COc1cc(-c2noc(CN3CCN(c4cccc(Cl)c4)CC3)n2)cc(OC)c1OC | -16% | ?
COc1ccc(Cn2nnnc2C(c2cccs2)N2CCN(c3ccccc3)CC2)cc1 (stereo not given) | -13% | -20%
Cc1cccc(NC(=O)c2nnn(CC(=O)Nc3ccc(C(C)C)cc3)c2N)c1C | 2% | -4%
Cc1ccc2nc(N(Cc3cccnc3)C(=O)CCS(=O)(=O)c3ccccc3)sc2c1 | -10% | i
COCCN(Cc1ccccc1)C(=O)c1cccc(S(=O)(=O)N2CCN(Cc3ccccc3)CC2)c1 | -25% | ?
CCCCCCNCC(=O)N1CCC(Cc2ccccc2)CC1 | -14% | -27%
CCS(=O)(=O)c1ncc(Cl)c(C(=O)N(Cc2ccccc2)c2ccc(OC)cc2)n1 | -23%[7.34 µM] | -27%[7.34 µM]
CN(C)c1ccc(/C=C/c2ccc3cc(N)ccc3n2)cc1 | 12% | 14%
O=C(CSc1nccn1Cc1ccc(F)cc1)Nc1ccc(F)cc1F | -17% | -5%
Cc1cc(=O)oc2c3c(ccc12)OCN(Cc1ccccc1Cl)C3 | -2% | 0%
CN1CCC(=O)N([C@H](CSc2ccc(Br)cc2)c2ccccc2)CC1 | -17% | -9%
CC(Sc1nnc(N)s1)C(=O)NNC(=O)c1cccc(Cl)c1 (stereo not given) | -9% | -15%
C=C(C)[C@@H]1CC=C(CO)CC1 | -5% | i
C=CCNC(=S)N(Cc1ccccc1)Cc1ccccc1 | -10% | -11%
Cc1ccccc1Nc1nc(N)nc(-c2oc3ccccc3c2C)n1 | -19% | i
(listing goes on)
SMILES | Vaccinia Venus | VACV mCherry inh
N#Cc1ccccc1OCC(=O)Nc1cc(S(=O)(=O)N2CCCCC2)ccc1N1CCOCC1 | -14% | -21%
CC(=O)C1=C(C)Nc2ncnn2C1c1ccccc1Cl (stereo not given) | 0% | -1%
CN(C)S(=O)(=O)c1ccc(NC(=O)/C=C/c2ccccc2Cl)cc1 | -29% | ?
O=C(CC1C(=O)NCCN1Cc1cccc(F)c1)NC1CCC1 (stereo not given) | -13% | -14%
Clc1ccccc1Cc1noc(CN2CCCCC2CCc2ccccn2)n1 (stereo not given) | -6% | i
CSc1ccc(CN2CCC2(C)C(=O)NCc2cccc(C(F)(F)F)c2)cc1 (stereo not given) | -4% | ?
NC1CCCCC1N=Cc1c(O)n(Cc2ccc(F)cc2)c(=O)[nH]c1=O (stereo not given) | -13% | i[1.46 µM]
COc1ccc2cc(S(=O)(=O)N3CCOCC3)ccc2c1 | -12% | -14%
COc1ccc(Nc2ncnc3c2c(-c2ccccc2)cn3-c2ccc(C)c(Cl)c2)cc1OC | -1% | -5%
CC(C)C(=O)N1CCC1(C)C(=O)Nc1cccc(Oc2ccccc2)c1 (stereo not given) | 0% | 8%
O=S(=O)(NCc1ccc2c(c1)OCO2)c1cccc(F)c1 | -13% | -16%
CC(C(=O)O)n1nnc2ccccc21 (stereo not given) | -7% | -14%
COC(=O)N/N=C/c1cn(Cc2ccccc2Cl)c2ccccc12 | -22% | ?
CCOC(=O)c1nn(-c2ccc(F)cc2)c(=O)cc1OCC(=O)Nc1cccc(C)c1 | -12% | i
COC(=O)C1=C(c2ccc(-c3ccccc3)c(F)c2)C[C@@H]2CC[C@H]1N2C(=O)N1CCOCC1 | -30% | -29%
CCN(CC)C(=O)Cn1c(=O)n(CCCCCC(=O)NCc2ccc3c(c2)OCO3)c(=O)c2sccc21 | -3% | -10%
CCc1ccc(OCC(=O)Nc2ccc(-c3nc4ccccc4o3)c(O)c2)cc1 | -16% | .
CCC(c1nnnn1Cc1ccco1)N(Cc1cc2cc(C)cc(C)c2[nH]c1=O)CC1CCCO1 (stereo not given) | -4% | -15%
Cc1cc(C(=O)N2CCc3ccccc3C2)on1 | -5% | -15%
COc1cc2cc(CN(Cc3cccs3)C(=S)Nc3ccccc3)c(=O)[nH]c2cc1OC | -23% | -24%
CCc1ccc(-c2nc(CCl)cs2)cc1 | -12% | -15%
O=C(COC(=O)c1cc(S(=O)(=O)N2CCCCC2)ccc1N1CCOCC1)NC1CCS(=O)(=O)C1 (stereo not given) | -4% | -6%
OC(CBr)CN1CCCCC1 (stereo not given) | -8% | i
Cc1ccsc1C(=O)Nc1nccs1 | -6% | i
CC1CCCCN1CCCNC(=O)C1CCCN(c2ncnc3c2nc2n3CCCCC2)C1 (stereo not given) | -24% | -9%
Next structures:
SMILES | Vaccinia Venus | VACV mCherry inh
COc1ccc(C(=O)NC(C)C2CC3CCC2C3)cc1 (stereo not given) | -3% | i
C/C(=N\Nc1ccc(C)c(Cl)c1)c1ccncc1 | -5% | ?
O=C(N/N=C/c1ccncc1)c1cccc(NC(=O)c2ccccc2Cl)c1 | -2% | -14%
COc1ccc(Nc2nc(C)cc(-c3cc(-c4ccccc4)on3)n2)cc1 | ? | -20%
Nc1nnc(SCC(=O)OCC(=O)NC23CC4CC(CC(C4)C2)C3)s1 | 2% | 1%
COC(=O)[C@@]1(Cc2ccc(F)cc2)[C@H]2c3cc(C(=O)N4CCCC4)n(Cc4ccc(C)o4)c3C[C@H]2CN1C(=O)c1ccccc1 | -26% | -20%
CCCSc1nc(C)cc(=O)[nH]1 | -6% | -6%
COc1cc(/C=C2\SC(=S)N(NS(=O)(=O)c3ccccc3)C2=O)cc(OC)c1OC | -19% | -18%
CCN(CC(=O)NCc1cccs1)C(=O)CCc1c[nH]c2ccccc12 | -9% | -10%
COc1cc2c(C(=O)NCc3ccccn3)cn(CC(C)C)c(=O)c2cc1OC | -29% | -5%
Cc1oc(-c2ccccc2Cl)nc1CN(C)C(C)c1ccon1 (stereo not given) | -1% | ?
O=C(Nc1cccnc1)c1ccc(N2CCCC2)c([N+](=O)[O-])c1 | -11% | -14%
Cc1ccc(N2C(=O)CC(Sc3ccccc3C(=O)O)C2=O)c([N+](=O)[O-])c1 (stereo not given) | -10% | i
CCOc1ccc(S(=O)(=O)NCc2ccccn2)cc1NC(=O)c1ccccc1 | -25% | -10%
O=C1c2ccccc2NC(c2ccc(O)cc2)N1/N=C/c1ccc(O)cc1 (stereo not given) | -6% | i
Cc1cc(OCC(=O)N(C)C)c2c(-c3ccccc3)cc(=O)oc2c1 | -6% | 2%
CN1CCN(S(=O)(=O)c2ccc(Cl)s2)CC1 | -5% | 0%
